FGF22 binding = binders of human FGF22 protein, primary screen, FGF22 synaptogenesis inhibitor project, biophysical, thermal shift, single point; Fibroblast growth factor 22 (Homo sapiens), Q9HCT0; recombinant FGF22 thermal shift, SYPRO orange fluorescence; percent of sucrose octasulfate shift, DMSO zero; calls only at 9.99 µM; hit rate 1.5% among 340,000;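 active = melting point raised past a set limit in the mean and every replicate; three in four hits are not shown here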
Target sequence (Q9HCT0 whole entry, looked up): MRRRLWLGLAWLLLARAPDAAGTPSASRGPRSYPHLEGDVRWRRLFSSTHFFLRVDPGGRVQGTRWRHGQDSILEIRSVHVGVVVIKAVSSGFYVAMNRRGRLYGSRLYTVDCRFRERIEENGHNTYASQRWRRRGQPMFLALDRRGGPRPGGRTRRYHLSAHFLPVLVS
rRNA inh HTS = reduced GFP signal of wild-type E. coli, primary screen, bacterial rRNA inhibitor project, GFP/RFP fluorescence, OD600, single point | E. coli WT GFP vs humanized-ribosome RFP mutants, 24 h; stronger effect = lower value; DMSO median 0, no signal -100 | AID 720706, 2013 | hit rate 1.6% among 350,000 | GFP signal change (wild-type ribosome), % (test concentration not listed);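 active = significant combined selectivity score with lowered wild-type GFP, culture density cut under 30%, mutant RFP and density less affected; inactive = any of these conditions unmet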; note: one replicate is shown; some compounds called inactive have numbers as strong as hits
AF4-AF9 inh = inhibitors of AF4 peptide binding to AF9, primary screen, biochemical, AlphaScreen, biotin-AF4 peptide, FLAG-AF9, single point | inhibition, % at 10 µM | hit rate 0.47% among 350,000 | AID 651704, 2012;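 active = every replicate reaching a set inhibition limit, whatever the replicate mean, cut at about 25% in these data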;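 note: 0% = plate neutral control median and 100% = total signal loss; the record names both 10 and 1 µM as test concentration; the first replicate is given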
Target sequence (P42568 whole entry, looked up): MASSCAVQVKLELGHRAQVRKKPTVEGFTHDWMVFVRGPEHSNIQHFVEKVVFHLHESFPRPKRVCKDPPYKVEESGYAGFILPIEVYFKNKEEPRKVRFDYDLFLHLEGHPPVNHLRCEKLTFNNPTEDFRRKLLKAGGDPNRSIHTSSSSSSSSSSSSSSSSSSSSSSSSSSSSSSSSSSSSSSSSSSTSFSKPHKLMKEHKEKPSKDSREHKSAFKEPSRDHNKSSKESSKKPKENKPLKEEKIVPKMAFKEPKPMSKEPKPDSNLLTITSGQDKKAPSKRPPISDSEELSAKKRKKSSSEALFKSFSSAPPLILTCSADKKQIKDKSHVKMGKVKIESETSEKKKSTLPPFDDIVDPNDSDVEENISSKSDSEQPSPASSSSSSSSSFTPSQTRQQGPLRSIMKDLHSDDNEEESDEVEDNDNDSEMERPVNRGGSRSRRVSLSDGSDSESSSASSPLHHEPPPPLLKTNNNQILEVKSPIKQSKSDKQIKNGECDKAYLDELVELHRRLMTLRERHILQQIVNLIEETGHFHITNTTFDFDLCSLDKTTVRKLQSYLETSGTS
rRNA inh HTS OD600 = further read-out of rRNA inh HTS, marked with its call; OD600 change, %; measured here: OD600 growth;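 optical density of the mix in the first replicate; 0 = DMSO median and -100 = no signal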
rRNA inh HTS RFP = also measured in rRNA inh HTS; calls as there; RFP signal change, %; measured here: RFP humanized mutant strains;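 first replicate; 0 = DMSO median and -100 = no signal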
Starred values were filed as active, the others as inactive; i = inactive; / = not tested or not shown.

Second line of a record – rRNA inh HTS RFP, rRNA inh HTS, FGF22 binding, rRNA inh HTS OD600, AF4-AF9 inh
> C[C@@H]1CCCCO[C@H](CN(C)C(=O)Nc2ccc3c(c2)OCO3)[C@H](C)CN([C@H](C)CO)C(=O)c2cc(NC(=O)c3ccccc3)ccc2O1
→ -0.6, 0, i, 8, 0.3
> C[C@H](CO)N1C[C@H](C)[C@H](CN(C)S(=O)(=O)c2ccc(Cl)cc2)Oc2ccc(NC(=O)C3CC3)cc2CC1=O
→ 2.2, -5, i, -10, 0.5
> OC[C@H]1[C@@H](c2ccc(-c3cccc(F)c3)cc2)[C@H]2CN(CCC(F)(F)F)CCCCN21
→ -16, -58, i, -79, 16
> Nc1nc2c(-c3ccc([N+](=O)[O-])cc3)nnn2c2ccccc12
→ 1.9, 0, i, 6, 3.2
> CCc1nc2ccc(C(=O)N3CCNC(=O)C3)cn2c1N(C)CCC(C)C
→ 0.1, 9, i, 18, 0.8
> CCCNC(=O)N(C)C[C@H]1Oc2ncc(C#CC3(O)CCCC3)cc2C(=O)N([C@@H](C)CO)C[C@@H]1C
→ -0.8, 3, i, -2, -1.2
> CCCCN1CCC(CN2C(=O)C(=O)NC[C@@H]2Cc2ccccc2)CC1
→ -3.5, 5, i, 6, -1.1
> COc1ccc(S(=O)(=O)N(C)C[C@H]2Oc3ccc(NC(=O)Cc4ccccc4)cc3C(=O)N([C@@H](C)CO)C[C@@H]2C)cc1
→ 2.4, 1, i, -5, -1.4
> O=C(NCC[C@@H]1CC[C@H](NC(=O)C2CCOCC2)[C@@H](CO)O1)c1ccc(F)cc1
→ 1.3, 0, i, 3, -7.1
> C[C@@H]1CN([C@@H](C)CO)C(=O)c2cc(N(C)C)ccc2O[C@H]1CN(C)S(=O)(=O)c1cn(C)cn1
→ 0.5, 3, i, 12, -16
> COCC(=O)N(C)C[C@H]1Oc2cc(-c3ccccc3F)ccc2S(=O)(=O)N([C@@H](C)CO)C[C@@H]1C
→ -1.4, -3, i, 2, 2.8
> CN1C(=O)c2cc(NC(=O)c3ccccc3F)ccc2OC[C@H]2O[C@H](CC(=O)NCc3ccc4c(c3)OCO4)CC[C@H]21
→ -0.8, 2, i, 10, -2.7
> COc1ccc(Cl)cc1Cn1c(C)c(C(=O)NCc2ccc(C#N)cc2)sc1=O
→ -14, -14, i, -13, 1.3
> O=C(NCC1CCCCC1)[C@H]1[C@H](CO)[C@H]2Cn3c(ccc(-c4ccccc4)c3=O)[C@@H]1N2
→ 1.4, -1, i, -7, 1.0
> C[C@H](CO)N1C[C@H](C)[C@H](CN(C)S(=O)(=O)c2ccc(C#N)cc2)Oc2ncc(C#Cc3ccc(F)cc3)cc2C1=O
→ -0.1, -1, i, -7, 0.6

Following part
Second line of a record – rRNA inh HTS RFP, rRNA inh HTS, FGF22 binding, rRNA inh HTS OD600, AF4-AF9 inh
> COc1ccc2ccccc2c1C1NC(=O)c2ccccc2N1 (centres undefined)
→ -4.7, -8, /, -14, 4.9
> COc1ccc2c3c(n(C)c2c1)[C@H](CO)N(Cc1ccc(F)cc1)CC31CN(C)C1
→ -0.7, 1, i, 0, 6.1
> CCNC(=O)C1(C)CCN(Cc2ccc(C(=O)OCC)o2)C1 (centres undefined)
→ -1.7, 13, i, 9, -4.5
> CO[C@H]1CN(C)C(=O)c2cc(NC(=O)CC(F)(F)F)ccc2OC[C@H](C)N(C(=O)C2CC2)C[C@H]1C
→ -1.4, 2, i, 1, -0.6
> COc1ccc2c3c([nH]c2c1)[C@@H](CO)N(C(=O)NC(C)C)CC31CN(Cc2ccccc2)C1
→ 0.1, 0, i, 4, 18
> COc1ccc(S(=O)(=O)N(C)C[C@@H]2Oc3c(NC(=O)NC4CCCCC4)cccc3C(=O)N([C@H](C)CO)C[C@H]2C)cc1
→ 1.0, -4, i, -11, 0.0
> CCCNC(=O)N1CCC2(CC1)CN(C(=O)COC)[C@H](CO)c1c2c2ccc(OC)cc2n1C
→ -3.4, 2, i, 8, -16
> CN1CCCCN2[C@H](CO)[C@@H](c3ccc(Br)cc3)[C@H]2C1
→ 2.1, 4, i, 9, -2.7
> COc1ccc(CNC(=O)C[C@H]2C=C[C@@H](NC(=O)c3cccc(F)c3)[C@@H](CO)O2)cc1
→ -1.2, -3, i, 4, -2.7
> C[C@@H]1CN([C@@H](C)CO)C(=O)Cc2cc(NC(=O)CCC(F)(F)F)ccc2O[C@@H]1CN(C)S(=O)(=O)c1ccc(Cl)cc1
→ 0.2, -2, i, -9, 0.3
> CCOC(=O)[C@]12CCCC=C1N(Cc1ccco1)C(=O)[C@H](CC(=O)NCc1cccs1)C2
→ 2.8, 3, i, 2, 0.0
> O=C(Cn1nc2ccccc2n1)N/N=C/c1cc(Cl)cc([N+](=O)[O-])c1O
→ 0.9, 6, i, 3, -2.1
> Cc1ccc(S(=O)(=O)N(C)C[C@@H]2Oc3cc(C#CC4CCCC4)ccc3S(=O)(=O)N([C@@H](C)CO)C[C@@H]2C)cc1
→ -4.0, 2, i, -2, 0.4
> C[C@H]1CN([C@@H](C)CO)C(=O)c2cc(NC(=O)NC3CCCCC3)ccc2O[C@H]1CN(C)C
→ -0.9, 3, i, -5, -4.0
> Cc1cc(C2=CC(=O)C[C@H](c3ccc(F)cc3)C2)ccc1F
→ -5.3, -9, i, -28, -0.1

Next part.
Second line of a record – rRNA inh HTS RFP, rRNA inh HTS, FGF22 binding, rRNA inh HTS OD600, AF4-AF9 inh
> Cc1noc(C)c1S(=O)(=O)Nc1ccc2c(c1)C(=O)N([C@H](C)CO)C[C@H](C)[C@@H](CN(C)C(=O)CCC(F)(F)F)OCCCC[C@H](C)O2
→ -1.0, -1, i, 1, 2.6
> C[C@H](CO)N1C[C@H](C)[C@H](CN(C)C(=O)c2cccnc2)Oc2ncc(-c3ccc(C(=O)N(C)C)cc3)cc2C1=O
→ -1.6, 5, i, 16, 0.6
> Cc1ccc(Cn2c(C)c(C(=O)NCc3ccc(Cl)c(Cl)c3)sc2=O)cc1
→ -3.3, 3, i, 0, 8.2
> O=C(CC[C@H]1O[C@@H](n2ccc(=O)[nH]c2=O)[C@H](O)[C@@H]1O)N[C@H](Cc1ccccc1)C(=O)NC1CCCCC1
→ -1.5, -10, i, -1, -2.4
> C[C@@H]1CN([C@H](C)CO)C(=O)c2c(c3ccccc3n2C)-c2ccccc2CO[C@@H]1CN(C)Cc1ccc(Cl)c(Cl)c1
→ -2.3, 5, i, 10, -0.2
> C[C@@H]1CCCCO[C@H](CN(C)C(=O)Nc2cccc3ccccc23)[C@H](C)CN([C@@H](C)CO)C(=O)c2cc(NC(=O)C3CCCCC3)ccc2O1
→ 1.6, -3, i, -2, -0.5
> C[C@@H]1CCCCO[C@H](CN(C)C(=O)C2CCCCC2)[C@@H](C)CN([C@@H](C)CO)C(=O)c2cc(NC(=O)Nc3ccccc3)ccc2O1
→ -0.5, -2, i, 0, 5.5
> COc1ccc(NC(=O)C2(C)CCN2C(=O)Cc2ccccc2)cc1OC (centres undefined)
→ 0.0, 16, i, 30, -1.2
> C[C@@H]1CCCCO[C@H](CN(C)S(=O)(=O)c2ccc(F)cc2)[C@@H](C)CN([C@H](C)CO)C(=O)c2cc(N(C)C)ccc2O1
→ -0.4, 2, i, 10, -23
> C[C@H]1CN([C@@H](C)CO)C(=O)c2cc(NC(=O)CCCN(C)C)ccc2O[C@@H]1CN(C)Cc1ccc(-c2ccccc2)cc1
→ 7.6, 1, i, -2, 7.9
> Cc1ccc(S(=O)(=O)N(C)C[C@@H]2OCCCC[C@@H](C)Oc3ccc(NS(=O)(=O)c4ccc(F)cc4)cc3C(=O)N([C@H](C)CO)C[C@H]2C)cc1
→ 0.6, 2, i, -5, 4.5
> C[C@H](CO)N1C[C@H](C)[C@H](CN(C)Cc2ccc(Oc3ccccc3)cc2)Oc2ccc(NC(=O)CCCN(C)C)cc2CC1=O
→ -25, -55, i, -76, 12
> CC(C)NC(=O)Nc1ccc2c(c1)CC(=O)N([C@@H](C)CO)C[C@@H](C)[C@@H](CN(C)S(=O)(=O)c1ccccc1)O2
→ -1.1, 1, i, 1, -0.5
> COc1cccc(S(=O)(=O)N(C)C[C@@H]2Oc3cc(C4=CCCC4)ccc3S(=O)(=O)N([C@H](C)CO)C[C@H]2C)c1
→ -3.0, 3, i, -7, 0.3
> O=C(c1cccc(F)c1)N1CC(=O)N2[C@H](C1)[C@H](c1ccc(-c3ccccc3F)cc1)[C@@H]2CO
→ 1.8, -5, i, -43, 1.2

(more compounds)
Second line of a record – rRNA inh HTS RFP, rRNA inh HTS, FGF22 binding, rRNA inh HTS OD600, AF4-AF9 inh
> COc1ccc(NC(=O)Nc2ccc3c(c2)[C@@H]2C[C@@H](CC(=O)N4CCN(C)CC4)O[C@@H](CO)[C@@H]2O3)cc1
→ -2.1, 2, i, 3, 11
> COc1ccc2c3c([nH]c2c1)[C@@H](CO)N(Cc1cccc(F)c1)CC31CN(Cc2ccccn2)C1
→ 6.8, -2, i, -2, 17
> O=C(C[C@@H]1CC[C@@H](NC(=O)c2cccnc2)[C@@H](CO)O1)NCc1ccc(Cl)c(Cl)c1
→ -0.6, -4, i, -7, -2.6
> C[C@@H]1CN([C@@H](C)CO)C(=O)c2cc(-c3cccnc3)cnc2O[C@H]1CN(C)C(=O)C1CCOCC1
→ -1.6, 2, i, 1, -1.7
> C[C@@H]1CCCCO[C@@H](CN(C)C(=O)Nc2cccc3ccccc23)[C@H](C)CN([C@@H](C)CO)C(=O)c2cc(NC(=O)Nc3ccc(C(F)(F)F)cc3)ccc2O1
→ -0.6, -1, i, -4, -1.2
> CCNC(=O)C[C@@H]1CC[C@@H]2[C@@H](COc3ccc(NC(=O)Nc4ccccc4C)cc3C(=O)N2C)O1
→ -1.3, 0, i, 4, -0.2
> C[C@H](CO)N1C[C@H](C)[C@H](CN(C)Cc2ccncc2)Oc2c(NC(=O)Nc3ccc(F)cc3)cccc2C1=O
→ -1.6, 5, i, 9, -2.4
> Nc1nc2ncccn2c1-c1ccccc1
→ 0.1, 29, i, 13, 1.9
> CCc1nc2ccc(C(=O)N3CCN(C(=O)c4ccco4)CC3)cn2c1N(CC)CCOC
→ 2.0, 6, i, 13, -0.8
> COc1cccc(C2c3cc4c(cc3OC(N3CCCC3)C2C)OCO4)c1O (centres undefined)
→ 5.7*, -20*, i, -6.3*, 11
> C[C@H]1CN([C@@H](C)CO)C(=O)c2cc(/C=C/c3ccccc3)cnc2O[C@H]1CN(C)C(=O)Cc1ccccn1
→ 1.8, -2, i, 10, 1.0
> CO[C@@H]1[C@@H](OC(N)=O)[C@@H](O)[C@H](Oc2ccc3c(O)c(NC(=O)c4ccc(O)c(CC=C(C)C)c4)c(=O)oc3c2C)OC1(C)C
→ 4.2, 7, i, 4, -1.7
> COc1ccc(NC(=O)N[C@@H]2CC[C@H](CCn3cc(-c4ccc(OC)cc4)nn3)O[C@@H]2CO)cc1
→ 3.4, -3, i, -6, 1.1
> C[C@H]1CN([C@@H](C)CO)C(=O)Cc2cc(NC(=O)Nc3cccc4ccccc34)ccc2O[C@H]1CN(C)Cc1ccc(C(=O)Nc2ccccc2N)cc1
→ -8.1, -50, i, -74, -3.5
> COc1ccc(S(=O)(=O)Nc2ccc3c(c2)C(=O)N([C@H](C)CO)C[C@H](C)[C@@H](CN(C)S(=O)(=O)c2cn(C)cn2)OCCCC[C@@H](C)O3)cc1
→ 0.5, 1, i, 2, -3.4
> O=C(C[C@H]1C[C@@H]2c3cc(NS(=O)(=O)c4ccc(F)cc4)ccc3O[C@@H]2[C@H](CO)O1)NC1CCCCC1
→ 1.0, -5, i, -6, -0.8
> COc1ccc(S(=O)(=O)N2C[C@H](O)COC[C@@H]3O[C@H](CC(=O)NCCN4CCCCC4)CC[C@H]32)cc1
→ 0.4, 1, i, 1, -16
> COCC(=O)N1CCCCN2[C@H](C1)[C@@H](c1ccc(-c3ccc(F)cc3)cc1)[C@@H]2CO
→ -2.8, 0, i, -1, -3.9

Part of the list above, limited to AF4-AF9 inh, FGF22 binding and rRNA inh HTS RFP:
Compound | AF4-AF9 inh | FGF22 binding | rRNA inh HTS RFP
COCC(=O)N1CCCCN2[C@H](C1)[C@@H](c1ccc(-c3ccc(F)cc3)cc1)[C@@H]2CO | -3.9 | i | -2.8
O=C(C[C@@H]1CC[C@@H](NC(=O)c2cccnc2)[C@@H](CO)O1)NCc1ccc(Cl)c(Cl)c1 | -2.6 | i | -0.6
Nc1nc2ncccn2c1-c1ccccc1 | 1.9 | i | 0.1
COc1ccc2c3c([nH]c2c1)[C@@H](CO)N(Cc1cccc(F)c1)CC31CN(Cc2ccccn2)C1 | 17 | i | 6.8
COc1ccc(NC(=O)N[C@@H]2CC[C@H](CCn3cc(-c4ccc(OC)cc4)nn3)O[C@@H]2CO)cc1 | 1.1 | i | 3.4

Another view of 2 compounds above.
SMILES	rRNA inh HTS RFP	rRNA inh HTS	FGF22 binding	rRNA inh HTS OD600	AF4-AF9 inh
CO[C@@H]1[C@@H](OC(N)=O)[C@@H](O)[C@H](Oc2ccc3c(O)c(NC(=O)c4ccc(O)c(CC=C(C)C)c4)c(=O)oc3c2C)OC1(C)C	4.2	7	i	4	-1.7
C[C@H](CO)N1C[C@H](C)[C@H](CN(C)Cc2ccncc2)Oc2c(NC(=O)Nc3ccc(F)cc3)cccc2C1=O	-1.6	5	i	9	-2.4

Source: PubChem BioAssay

Some of the compounds tested; rates above refer to the full screens.
